# High-throughput results as filed in PubChem.
# gsp antagonist: qHTS for Antagonists of gsp, the Etiologic Mutation Responsible for Fibrous Dysplasia/McCune-Albright Syndrome: qHTS; gsp-mutant cells, cAMP HTRF, 30 min; control for the full effect not named in the record; Potency, µM (doses to about 76.9 µM), for inactives: top-dose activity change, negative = inhibition, most hits filed as inhibitors; 0.4% of 340,000 active; active = falling curve of any shape with a large fitted effect; inconclusive = falling curve, mostly with a smaller effect; inactive = flat or rising curve; cell line not stated here;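 further: intracellular cAMP measured with PDE inhibitor Ro 20-1724 present during compound exposure; potency means the concentration at half of the fitted maximal effect; on the % scale 0 is the no-effect control and ±100 the full control effect; nearly all actives have a fitted effect of over 65% in size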
#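 Measurement of cellular cAMP by homogeneous time-resolved fluorescence following a 30 min compound exposure at 37C. The PDE inhibitor […] was present throughout; the assay buffer was DPBS with 0.05% BSA and 0.005% Tween 20.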
# ClpP mod: qHTS Assay for Activators of ClpP. ATP-dependent Clp protease proteolytic subunit (Bacillus subtilis (strain 168)), P80244. purified B. subtilis ClpP, FRET peptide cleavage, 20 min. Potency, µM (highest dose often 57.5 µM), inactives show at the highest dose activity change, negative = active. 1.9% of 340,000 active. AID 651965, 2013; active = well fitted falling curve with a large enough effect; inconclusive = small, poorly fitted or top-dose-only effect; inactive = no such curve, though single readings can be large or run the other way; further: potency means the concentration at half of the fitted maximal effect; the source files actives as falling curves though it sought activators and does not explain the sign; nearly all actives have a fitted effect of over 65% in size; many hits overshoot -100%
# Target sequence (P80244 whole entry, looked up): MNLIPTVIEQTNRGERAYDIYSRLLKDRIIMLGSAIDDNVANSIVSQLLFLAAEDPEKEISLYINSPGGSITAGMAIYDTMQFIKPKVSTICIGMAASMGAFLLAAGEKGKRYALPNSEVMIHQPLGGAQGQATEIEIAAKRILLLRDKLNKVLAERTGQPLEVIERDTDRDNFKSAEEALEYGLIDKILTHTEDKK
#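 ClpP 10 microg/mL final, pH 8 Tris/KCl buffer with BSA, glycerol, Tween-20; compound pinned in; FRET-FV substrate; RT 20 min; Ex320/Em430; ΔFRET vs ADEP 5.8 microM, DMSO, no enzyme.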
# CtBP-E1A blk: qHTS Assay for Inhibitors of the CtBP/E1A Interaction | 0.49% of 340,000 active | activity change, % (test concentration not listed) | AlphaScreen GST-E1A/His-CtBP binding, 1536-well; stronger effect = lower value; control for the full effect not named in the record | AID 651724, 2012; in the data active means activity change below about -65%; inconclusive means about -30% to -65%; inactive means above about -30%; further: on the % scale 0 is the no-effect control and ±100 the full control effect; compound concentration not given in the record
#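 Protein mix (5X: 125 nM each GST-E1A, His-CtBP) was incubated with pinned compound 2 h at 37 deg C in dark, in 50 mM Tris pH 8.0 buffer with 300 mM NaCl. Glutathione donor and nickel acceptor beads followed; AlphaScreen signal read after 1 h.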
# TRPV1 potentiator: HTS Assay for Compounds that Act as Potentiators of the Vanilloid Receptor 1. Transient receptor potential cation channel subfamily V member 1 (Homo sapiens), Q8NER1. AID 540277, 2011. TRPV1-expressing cells, Fluo-8 calcium influx, capsaicin EC20 potentiation; host cell line not named in the record; control for the full effect not named in the record. 0.02% of 320,000 active. potentiation, % at 8.33 µM; active means potentiation above 80%; inconclusive means 30% to 80%; inactive means below 30%; further: 0% is about no effect
# Target sequence (Q8NER1 whole entry, looked up): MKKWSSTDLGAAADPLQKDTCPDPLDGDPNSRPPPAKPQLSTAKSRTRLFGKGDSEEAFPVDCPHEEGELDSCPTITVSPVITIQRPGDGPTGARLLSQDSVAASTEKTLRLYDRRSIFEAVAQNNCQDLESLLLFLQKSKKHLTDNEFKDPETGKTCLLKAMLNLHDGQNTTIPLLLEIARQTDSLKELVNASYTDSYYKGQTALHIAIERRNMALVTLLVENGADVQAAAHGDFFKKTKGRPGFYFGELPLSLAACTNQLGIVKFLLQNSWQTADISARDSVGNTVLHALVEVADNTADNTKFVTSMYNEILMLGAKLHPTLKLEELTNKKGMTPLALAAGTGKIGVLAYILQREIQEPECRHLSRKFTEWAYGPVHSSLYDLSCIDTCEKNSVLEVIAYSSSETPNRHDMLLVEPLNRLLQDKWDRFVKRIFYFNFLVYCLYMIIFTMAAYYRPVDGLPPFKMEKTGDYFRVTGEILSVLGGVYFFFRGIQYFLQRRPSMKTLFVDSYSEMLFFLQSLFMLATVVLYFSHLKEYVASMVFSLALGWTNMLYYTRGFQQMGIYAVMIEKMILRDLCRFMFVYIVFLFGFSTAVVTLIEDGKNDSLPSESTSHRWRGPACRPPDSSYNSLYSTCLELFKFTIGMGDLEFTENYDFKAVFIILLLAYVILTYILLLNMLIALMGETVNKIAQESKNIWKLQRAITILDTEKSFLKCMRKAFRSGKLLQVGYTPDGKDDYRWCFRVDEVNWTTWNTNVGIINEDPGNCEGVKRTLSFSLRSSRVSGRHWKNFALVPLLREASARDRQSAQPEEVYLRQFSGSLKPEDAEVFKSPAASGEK
#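 TRPV1-expressing cells were cultured overnight at 35.5C and loaded with Fluo-8 calcium dye for 40 to 90 min at room temperature. After a 10 s baseline, compound was added and calcium influx was read kinetically for 3 min (ex 480/em 520 nm).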
# gsp agonist: qHTS for Agonist of gsp, the Etiologic Mutation Responsible for Fibrous Dysplasia/McCune-Albright Syndrome: qHTS. Potency, µM (highest dose often 76.9 µM), for the others: at the highest dose activation (cAMP increase), usual class: activators. AID 624287, 2012. 0.13% of 340,000 active. gsp mutant cells, cAMP HTRF, 30 min; control for the full effect not named in the record; active = well fitted activation curve with a large enough effect; inconclusive = small, poorly fitted or top-dose-only effect, or another doubt; inactive = no such curve, though single readings can be large or run the other way; cell line not stated here;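 further: phosphodiesterase inhibitor Ro 20-1724 added with compounds to block cAMP breakdown; potency means the concentration at half of the fitted maximal effect; nearly all actives have a fitted effect of over 60% in size; about a fifth of the inactives were tested at one dose only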
#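 Cells stably selected in G418 were plated at 2000/well, grown 16-24 hr, then given compounds in DMSO with the PDE inhibitor […] (300 uM solution added) for 30 min at 37C; cAMP was read by HTRF.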
# Sfp PPTase inh: qHTS Assay for Inhibitors of Bacillus subtilis Sfp phosphopantetheinyl transferase (PPTase); 4'-phosphopantetheinyl transferase ffp (Bacillus subtilis), Q9F4F7; Biochemical Sfp PPTase activity, qHTS; Potency, µM, for the others: max response, negative = inhibition, usual class: inhibitors; 3.5% of 310,000 active; AID 1490, 2009; active means well fitted inhibition curve with a large enough effect; inconclusive means small, poorly fitted or top-dose-only effect, or another doubt; inactive means no such curve, though single readings can be large or run the other way;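 further: the enzyme is Sfp with the accession as filed and its product quenches rhodamine fluorescence; potency means the concentration at half of the fitted maximal effect; 0% = enzyme reaction without inhibitor and -100% = no enzyme wells; top concentration of the series not given in the record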
#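 After 15 min at room temperature with compound, 15 nM Sfp received 5 uM rhodamine-CoA plus 12.5 uM BHQ-2-ybbR (50 mM Hepes pH 7.6, 10 mM MgCl2). Rate came from the fluorescence difference over 30 min, ex 525/em 598 nm.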
# Menin-MLL FL inh: qHTS Assay for Inhibitors Targeting the Menin-MLL Interaction in MLL Related Leukemias: Competition With Fluorescein Labeled MLL-derived Peptide | Fluorescence polarization, fluorescein-MLL peptide displacement from menin | FP activity change, % at 61.4 µM | 290,000 tested, under 10 active | AID 1766, 2009; inconclusive = falling polarisation curve, or a change in total fluorescence; inactive = total fluorescence flat and polarisation flat or rising; no compound was filed as active; the % refers to the polarisation; negative = inhibition;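 further: % of control where 0% means no effect; inhibitors lower the polarisation; unlabelled MLL peptide was the positive control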
# Numbers without * were called inactive; ? = inconclusive; nt = no result given; & = joins results of further samples; [ ] = another dose, or the depositor's remark.
SMILES,gsp antagonist,ClpP mod,CtBP-E1A blk,TRPV1 potentiator,gsp agonist,Sfp PPTase inh,Menin-MLL FL inh
Nc1cccc(C(=O)OCC(=O)NC2CCCc3ccccc32)c1 (configuration not stated),11%,-4.5%,1,?,15%,9%,-2.3
COc1ccc(C(=O)/C=C/Nc2ccc(C)cn2)cc1OC,9%,-16%,-7,10,-64%[inhibitor],11%,2.0
O=C(Oc1ccc(Br)cc1C(=S)N1CCOCC1)c1ccc(F)cc1,-20%,-2.8%,-17,8,7%,32µM*,nt
N#Cc1ccc(CC(=O)c2ccccc2)[nH]c1=O,-10%,-8.9%,-2,nt,15%[15.4 µM],nt,nt
CCCNC(=O)c1ccc2c(c1)nc(C)n2-c1cccc(Cl)c1,-6%,-0.4%,0,-25,-2%,7%,0.7
COCCn1c(=O)[nH]c2cc(C(=O)Nc3ccc(OC)c(Cl)c3)ccc2c1=O,4%,-0.1%,0,-17,-6%[15.4 µM],1%,3.9
CCOC(=O)c1oc2c(c1C)C(=O)CCC2,7%,-0.6%,17,24,-52%[inhibitor],-10%,5.6
COc1ccccc1C(=O)Nn1c(C2CCC2)nc2ccccc2c1=O,-16%,-1.7%,2,-2,-31%[inhibitor],4%,0.7
COCc1nnc(NS(=O)(=O)c2ccccc2)s1,4%,-1.7%,3,-2,-3%,-16%,-1.6
NS(=O)(=O)c1ccc(CNC(=O)c2ccc(C(=O)c3ccccc3)cc2)cc1,-17%,nt,2,nt,-23%,nt,nt
O=C(Nc1cccc(-c2cnc3ccccc3n2)c1)c1ccco1,-4%,-4.9%,-7,nt,0%,-16%,7.3
CNC(=O)CSc1nc2c([nH]c3ccccc32)c(=O)n1CCOC,-3%,-12%,-2,-1,-1%,10%,-9.5
CC(C[N+](C)(C)C)OC(N)=O (configuration not stated),-4%,1.4%,10,10,nt,12%&17%&7%,-5.1&2.8&7.2&1.7
CC1CCCN(C(=O)C(=O)c2cn(CC(=O)N3CCCCCC3)c3ccccc23)C1 (configuration not stated),-23%,-2.2%,0,-2,23%,-1%,nt
Cc1ccc(-n2c(SCC(=O)NC3CCS(=O)(=O)C3)nc3ccccc3c2=O)cc1C (configuration not stated),-9%,-26%,5,-1,-26%,nt,nt
CC(C)CNC(=O)COC(=O)c1cccc(S(=O)(=O)NCC(F)(F)F)c1,10%,nt,2,-4,-28%[15.4 µM],2%,-0.6
CN(C)CCCN1c2ccccc2Sc2ccc3ccccc3c21,-7%,-2.5%,-5,nt,35%,nt,nt
O=C(CCCCCn1c(=O)[nH]c2ccccc2c1=O)N1CCN(Cc2ccc3c(c2)OCO3)CC1,?,?,-11,0,0%,-7%,-1.0
CCOC(=O)N1CCC(NC(=O)CCC(=O)N2CC(C)Oc3ccccc32)CC1 (configuration not stated),-2%,-3.2%,-12,2,-9%,14%,-0.2
COc1ccc(NC(=O)c2ccc(NS(=O)(=O)c3cccc4cccnc34)cc2)cc1,-20%,nt,0,-1,-14%,5%,-1.4

# Random excerpt: two entries already listed.
SMILES,gsp antagonist,ClpP mod,CtBP-E1A blk,TRPV1 potentiator,gsp agonist,Sfp PPTase inh,Menin-MLL FL inh
COc1ccccc1C(=O)Nn1c(C2CCC2)nc2ccccc2c1=O,-16%,-1.7%,2,-2,-31%[inhibitor],4%,0.7
Cc1ccc(-n2c(SCC(=O)NC3CCS(=O)(=O)C3)nc3ccccc3c2=O)cc1C (configuration not stated),-9%,-26%,5,-1,-26%,nt,nt

# Next part
SMILES,gsp antagonist,ClpP mod,CtBP-E1A blk,TRPV1 potentiator,gsp agonist,Sfp PPTase inh,Menin-MLL FL inh
Cc1ccc(C)c(SCC(=O)Nc2cccc(S(=O)(=O)NC3=NCCCCC3)c2)c1,-7%,-1.9%,-1,?,23%,2%,nt
C=CCN(c1ccc(F)cc1)S(=O)(=O)c1cc(C(=O)OCC(=O)N(C)C2CCS(=O)(=O)C2)ccc1Cl (configuration not stated),-9%,-3.7%,-12,5,2%,8%,4.1
N#C/C(C(=O)N1CCCCC1)=C1\Nc2ccccc2S1,-10%,-2.6%,-2,-2,?,-19%,3.4
O=S(=O)(Nc1ccncc1Cl)c1ccc2ccccc2c1,-28%,0.0%,3,-6,0%[15.4 µM],2%,-1.3
Clc1ccccc1-c1nc(-c2ccccc2)n[nH]1,-6%,-2.5%,5,-1,-17%,-4%,1.4
CCOc1ccc(NC(=O)c2cc(SC)ccc2Cl)cc1,-1%,-11%,7,-4,29%,11%,-0.5
Cc1noc(C)c1C(=O)OC(C)C(=O)Nc1ccc([N+](=O)[O-])cc1C(F)(F)F (configuration not stated),nt,-3.0%,-7,nt,-2%,nt,nt
COc1cccc(/C=C/C(=O)OCC(=O)c2c[nH]c3ccccc23)c1OC,?,442%,-11,-14,11%,6%,4.9
CC(C)(C)NS(=O)(=O)c1ccc(CCC(=O)Nc2cc(Cl)ccc2Oc2ccccc2)cc1,?,-3.8%,2,6,3%,8%,1.6
COc1ccccc1-n1c(CNC(=O)c2ccco2)nnc1SCC(=O)Nc1ccc(F)cc1,-2%,-0.5%,-1,26,-2%,3%,3.5
O=C(NCC1CCCO1)C1CCN(S(=O)(=O)c2ccc(Br)cc2)CC1 (configuration not stated),-3%,-0.6%,2,-10,-1%,3%,nt
CCn1c2ccccc2c2cc(NC(=O)C(C)C)ccc21,0%,-6.4%,7,-22,4%,20%,5.2
O=C(NCCCN1CCOCC1)c1ccc2c(c1)N(Cc1ccccc1)CCS2,-10%,4.0%,-9,-39,30%,-7%,0.1
COc1ccccc1OCCOc1ccccc1/C=N/n1cnnc1,-7%,-8.2%,-2,4,-33%[inhibitor],27%,1.8
Cc1ccc(Cl)cc1NC(=O)COC(=O)CC1CC2CCC1C2 (configuration not stated),6%,1.8%,10,-9,0%,12%,5.5
CCN(CCCNC(=O)CCCCn1c(=O)[nH]c2ccccc2c1=O)c1ccccc1,11%,-0.2%,-7,4,-39%[inhibitor],8%,-0.4
COc1ccc(C2CC3(O)CC(C#N)(C(=O)N3)C2(C#N)C#N)cc1 (configuration not stated),-1%,-2.8%,nt,3,4%,15%,6.1
CCNC(=O)CC1C(=O)N(CC)C(=S)N1NC(=O)c1ccc(Cl)cc1 (configuration not stated),5%,-2.3%,-5,13,-38%[inhibitor],-4%,3.0
Cc1ccc(-n2c(=S)[nH]c3sc4c(c3c2=O)CCc2ccccc2-4)cc1,6%,0.2%,nt,-3,?,13%,9.5
COc1cc(S(=O)(=O)N(Cc2cccnc2)Cc2ccco2)ccc1-n1cnnn1,-32%,-0.1%,10,1,7%,1%,2.5
COc1ccc(-c2ccc(NS(=O)(=O)c3cc([N+](=O)[O-])c(C)c([N+](=O)[O-])c3)cc2)nn1,?,-1.3%,nt,5,-29%,12%,0.3
O=C(Nc1ccccc1C(=O)O)c1ccc2ccccc2n1,-26%,-2.4%,-4,-1,-4%,?,-1.1
Cc1ccc(C)c(S(=O)(=O)/N=C2\C=C(NS(=O)(=O)c3ccccc3)C(=O)c3ccccc32)c1,?,-0.6%,-19,10,-51%[inhibitor],-7%,nt
CCCCN(C)CCNC(=O)c1cn(C)c(=O)c2c1c1ccccc1n2C,2%,nt,5,11,-18%[15.4 µM],-15%,1.9
O=Cc1ccc2oc3nc4n(c(=O)c3c(=O)c2c1)CCCS4,-15%,-7.5%,?,-1,0%,-8%,2.9
Cc1noc(C)c1NC(=O)Nc1ccc2c(c1)C(=O)N([C@H](C)CO)C[C@H](C)[C@@H](CN(C)C(=O)Nc1ccccc1)O2,-1%,0.2%,7,nt,nt,nt,nt
CC(=O)N1c2ccc(S(=O)(=O)N3CCCC3)cc2CC1C(=O)NCc1cccc(F)c1 (configuration not stated),13%,-0.7%,4,4,3%,13%,nt
CCN(c1ccccc1)S(=O)(=O)c1ccc(C(=O)NCCCN2CCOCC2)cc1,10%,-3.2%,-1,12,7%,nt,nt
CC(=O)Nc1ccc(N(CC(=O)NCC2CCCO2)C(=O)CCC(=O)Nc2cc(C)on2)cc1 (configuration not stated),9%,nt,-3,3,-40%[inhibitor],5%,-4.2
CCCCN(C(=O)CCSc1ccc(F)cc1)c1c(N)n(Cc2ccccc2)c(=O)[nH]c1=O,?,3.5%,2,-6,-14%,nt,nt
NC1=NC(=O)/C(=C\c2ccc(O)c([N+](=O)[O-])c2)S1,-15%,nt,-82*,3,0%,2%,-2.5
CC1=C(C#N)C(C(F)(F)F)(C(F)(F)F)N=C(c2ccco2)N1,?,0.2%,7,20,-25%,16%,3.7
CCCCC(SCC(=O)Nc1ccccc1)C(=O)O (configuration not stated),7%,-1.7%,-2,?,-4%,4%,2.6
Cn1c(=O)c2c(nc(NCCO)n2CCCc2ccccc2)n(C)c1=O,4%,-1.9%,-5,-1,16%,11%,-1.0
O=[N+]([O-])c1ccc(-c2cn3c(n2)SCC3)cc1,8%,0.7%,nt,nt,?,nt,nt
CC(=O)N1c2ccc(N=Cc3cc(Br)cc(Br)c3O)cc2CC1C (configuration not stated),nt,nt,nt,8,nt,-27%,?
COc1ccc(C=O)cc1C1=CC(=O)C[C@H](c2ccc(Cl)cc2)C1,1%,-1.4%,-1,-13,-8%,nt,nt
CCCCNC(=S)Nc1ccc2nc3n(c(=O)c2c1)CCCCC3,-3%,0.9%,-2,4,-18%,13%,5.6
O=c1cc2c(nn1Cc1ccccc1Cl)-c1ccccc1CC2,-12%,-5.6%,2,-6,-10%,-8%,0.7
O=[N+]([O-])c1ccc([N+](=O)[O-])c(Nc2ccc(N3CCOCC3)cc2)c1,1%,-0.5%,nt,-5,23%,11%,-4.5
